TRPML1 inh – human mucolipin-1 channel inhibition | TRPML1-inducible cells, Ca2+ dye fluorescence, FDSS; active compounds read low; inhibition of EC80 agonist-evoked calcium signal | activity change, negative = inhibition, % (concentration not given with the values) | actives 0.02% (n = 390,000); in the data active means activity change below about -50%; inconclusive means about -30% to -50%; inactive means above about -30%;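 also: stimulus is agonist 54-4 at its EC80 concentration; % is scaled to controls: 0 for no effect and ±100 for the full control effect; the text of the record puts the active cut at -80%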
Target sequence (Q9GZU1 whole entry, looked up): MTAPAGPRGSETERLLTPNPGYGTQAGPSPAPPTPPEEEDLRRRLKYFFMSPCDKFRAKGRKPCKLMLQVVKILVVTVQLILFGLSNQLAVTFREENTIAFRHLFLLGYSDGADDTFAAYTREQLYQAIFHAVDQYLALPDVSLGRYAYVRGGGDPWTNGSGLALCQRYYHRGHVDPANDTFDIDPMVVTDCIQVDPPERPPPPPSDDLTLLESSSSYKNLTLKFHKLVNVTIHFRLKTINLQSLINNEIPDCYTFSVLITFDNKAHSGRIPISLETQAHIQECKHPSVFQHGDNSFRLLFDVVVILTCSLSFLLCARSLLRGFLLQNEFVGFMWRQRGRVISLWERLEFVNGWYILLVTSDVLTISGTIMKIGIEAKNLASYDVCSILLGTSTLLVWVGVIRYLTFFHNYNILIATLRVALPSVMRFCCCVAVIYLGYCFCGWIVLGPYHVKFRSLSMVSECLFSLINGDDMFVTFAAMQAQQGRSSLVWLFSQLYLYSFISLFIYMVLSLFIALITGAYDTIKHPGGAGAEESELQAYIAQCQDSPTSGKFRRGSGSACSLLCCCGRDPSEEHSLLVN
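TRPML1-DL cells, Tet-induced overnight (~16 h, 37 °C) at 1,500 cells/well, were loaded with Ca8 no-wash dye plus quencher for 45-90 min at room temperature. Compounds were pinned during FDSS kinetic reading; agonist 54-4 at EC80 (4 uM final) then added.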
TRPV1 potentiator – enhances activation of the human vanilloid receptor TRPV1; TRPV1-expressing cells, Fluo-8 calcium influx, capsaicin EC20 potentiation; host cell line not named in the record; control for the full effect not named in the record; potentiation, % at 8.33 µM; actives 0.02% (n = 320,000); AID 540277; active means potentiation above 80%; inconclusive means 30% to 80%; inactive means below 30%; also: 0% is about no effect
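TRPV1-expressing cells were cultured overnight at 35.5C and loaded with Fluo-8 calcium dye for 40 to 90 min at room temperature. After a 10 s baseline, compound was added and calcium influx was read kinetically for 3 min (ex 480/em 520 nm).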
Menin MLL FP FL – displaces fluorescein MLL peptide from human menin. Fluorescence polarization, fluorescein-MLL peptide displacement from menin. AID 1766. 290,000 tested, under 10 active. FP activity change, % at 61.4 µM; inconclusive = falling polarisation curve, or a change in total fluorescence; inactive = total fluorescence flat and polarisation flat or rising; no compound was filed as active; the % refers to the polarisation; negative = inhibition;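 also: % of control where 0% means no effect; inhibitors lower the polarisation; unlabelled MLL peptide was the positive control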
gsp antagonist – antagonists of gsp mutant (McCune-Albright syndrome); Potency, µM (highest dose often 76.9 µM), inactives show at the highest dose activity change, negative = inhibition, hits mostly inhibitors; actives 0.4% (n = 340,000); AID 624288; gsp-mutant cells, cAMP HTRF, 30 min; control for the full effect not named in the record; active = falling curve of any shape with a large fitted effect; inconclusive = falling curve, mostly with a smaller effect; inactive = flat or rising curve; cell line not stated here;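 also: intracellular cAMP measured with PDE inhibitor Ro 20-1724 present during compound exposure; potency is read from the fitted curve at half-maximal effect; % is scaled to controls: 0 for no effect and ±100 for the full control effect; nearly all actives have a fitted effect of over 65% in size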
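Cells in G418 medium, seeded 16-24 h, 37C; buffer exchange to DPBS + 1 mM CaCl2, 0.5 mM MgCl2, 0.05% BSA; cpds in DMSO + […] (300 uM stock), 30 min 37C; HTRF cAMP detection.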
gsp ag – gsp mutant agonism; actives 0.13% (n = 340,000); gsp mutant cells, cAMP HTRF, 30 min; control for the full effect not named in the record; Potency, µM (series often up to 76.9 µM), without a hit: at the highest dose activation (cAMP increase), usual class: activators; AID 624287; active = well fitted activation curve with a large enough effect; inconclusive = small, poorly fitted or top-dose-only effect, or another doubt; inactive = no such curve, though single readings can be large or run the other way; cell line not stated here;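 also: phosphodiesterase inhibitor Ro 20-1724 added with compounds to block cAMP breakdown; potency is read from the fitted curve at half-maximal effect; nearly all actives have a fitted effect of over 60% in size; about a fifth of the inactives were tested at one dose only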
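Cells in DMEM/10% FBS with G418 were pretreated with compounds in DMSO plus […] (300 uM stock) for 30 min at 37C. cAMP was measured by HTRF (cAMP-d2 plus anti-cAMP antibody-K) after 30 min at room temperature.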
ClpP mod – qHTS Assay for Activators of ClpP. purified B. subtilis ClpP, FRET peptide cleavage, 20 min. Potency, µM (series often up to 57.5 µM), without a hit: at the highest dose activity change, negative = active. actives 1.9% (n = 340,000). AID 651965, 2013; active = well fitted falling curve with a large enough effect; inconclusive = small, poorly fitted or top-dose-only effect; inactive = no such curve, though single readings can be large or run the other way; also: potency is read from the fitted curve at half-maximal effect; the source files actives as falling curves though it sought activators and does not explain the sign; nearly all actives have a fitted effect of over 65% in size; many hits overshoot -100%
Target sequence (P80244 whole entry, looked up): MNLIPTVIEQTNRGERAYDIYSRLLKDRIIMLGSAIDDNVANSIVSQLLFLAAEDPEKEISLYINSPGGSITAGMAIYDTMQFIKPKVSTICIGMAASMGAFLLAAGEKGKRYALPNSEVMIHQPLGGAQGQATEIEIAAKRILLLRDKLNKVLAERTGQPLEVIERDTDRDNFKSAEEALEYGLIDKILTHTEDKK
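FRET quenching reversal measured ClpP activation: 10 microg/mL B. subtilis ClpP at pH 8 with the FRET-FV decapeptide, read at 430 nm after 320 nm excitation. The 20-min minus 0-min signal was scaled between DMSO/no-enzyme wells and ADEP (5.8 microM final).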
Sfp inh – inhibitors of Bacillus subtilis Sfp phosphopantetheinyl transferase. Biochemical Sfp PPTase activity, qHTS. Potency, µM, for inactives: max response, negative = inhibition, usual class: inhibitors. actives 3.5% (n = 310,000). AID 1490; active = well fitted inhibition curve with a large enough effect; inconclusive = small, poorly fitted or top-dose-only effect, or another doubt; inactive = no such curve, though single readings can be large or run the other way;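 also: the enzyme is Sfp with the accession as filed and its product quenches rhodamine fluorescence; potency is read from the fitted curve at half-maximal effect; 0% = enzyme reaction without inhibitor and -100% = no enzyme wells; top concentration of the series not given in the record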
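Compounds were incubated with enzyme (final 15 nM) for 15 min at room temperature before substrate addition started the reaction. Fluorescence at 525 nm excitation, 598 nm emission was recorded immediately and after 30 minutes.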
The depositor's hits bear a star; u = inconclusive; x = not tested or not shown; & = joins results of further samples; [ ] = remark or other dose. Compounds were not picked by outcome; any-hit rate near 4.9%.

#1 NC(=O)CCCn1c(C(=O)c2ccc(Cl)cc2)c2ccc(C(F)(F)F)cc2[n+]1[O-]
#2 CC(NC(=O)Cn1cnnn1)C12CC3CC(CC(C3)C1)C2 (configuration not stated)
#3 CNC(=O)COc1ccc(S(=O)(=O)Nc2ccc(OC)cc2)cc1
#4 CCOC(=O)c1ccc(NS(=O)(=O)c2c(C)[nH]c(C)c2C(=O)N2CCCCC2)cc1
#5 CC1CCC(NC(=O)c2ccc(NC(=O)c3ccc(=O)[nH]c3)cc2)CC1 (configuration not stated)
#6 Cc1cccc(/C=C/C(=O)c2ccc([N+](=O)[O-])o2)c1
screen / no.,1,2,3,4,5,6
TRPML1 inh,12,25,-9,11,x,22
TRPV1 potentiator,-12,-20,-5,-2,16,20
Menin MLL FP FL,x,-0.5,2.6,0.7,6.4,x
gsp antagonist,-10%,14%,0%,u,x,-8%
gsp ag,u,-23%,u,14%,x,x
ClpP mod,-1.5%,-0.5%,x,-2.0%,x,1.0%
Sfp inh,x,-9%,-2%,19%,-1%,x

#7 CCN(CC)CCCN1C(=O)C(O)=C(C(=O)c2cc3ccccc3o2)C1c1ccccn1 (configuration not stated)
#8 O=C(CSc1nc2ccccc2c(=O)n1-c1ccc(F)cc1)NC1CC1
#9 Cc1ccccc1-c1nc2cc(N)ccc2o1
#10 O=C(O)c1ccccc1/C=N/NC(=O)C1CCCCC1
#11 Cc1cc(C)cc(OCC(O)Cn2nc(C)cc2C)c1 (configuration not stated)
#12 COc1ccc(CCNC(=O)c2ccc3c(SCC(=O)O)c4c(nc3c2)CCCC4)cc1OC
screen / no.,7,8,9,10,11,12
TRPML1 inh,7,2,-5,-5,3,-20
TRPV1 potentiator,15,-2,17,7,21,10
Menin MLL FP FL,4.4,x,-2.5,0.0,-9.2,4.2
gsp antagonist,11%,0%,11%,2%,5%,3%
gsp ag,u,7%,u,25%,u,3%
ClpP mod,-0.9%,1.0%,-7.0%,0.7%,-1.6%,-1.5%
Sfp inh,8%,x,3%,11%,5%,12%

#13 CC[C@]12c3[nH]c4cc(CCC(=O)N(C)C)ccc4c3CCN1C(=O)[C@@H](CC(=O)NCCCn1ccnc1)C[C@@H]2C(=O)N1CCN(C(=O)c2ccco2)CC1
#14 CN1CCN(CCCCOc2ccc(F)cc2)CC1
#15 COc1ccc(CCNC(=O)c2cc(-c3cccs3)on2)cc1OC
#16 O=C(CSc1nnc2c(Cl)cc(Cl)cn12)NC1CCS(=O)(=O)C1 (configuration not stated)
#17 Cc1cn([C@H]2C[C@H](O)[C@@H](CNC(=O)[C@H](N)C3CC3)O2)c(=O)[nH]c1=O
#18 Cc1cccc(NC(=O)NCCN2C(=O)C3C4C=CC(C4)C3C2=O)c1 (configuration not stated)
screen / no.,13,14,15,16,17,18
TRPML1 inh,-8,9,-3,28,10,-5
TRPV1 potentiator,x,-12,9,-6,x,x
Menin MLL FP FL,x,3.2,4.1,-1.1,x,6.4
gsp antagonist,-2%,3%,1%,9%,x,4%
gsp ag,x,2%,-33%[inhibitor],10µM*,12%,24%
ClpP mod,-5.6%,0.7%,-5.9%,-4.3%,-0.4%,0.0%
Sfp inh,x,-4%,14%,-3%,x,13%

#19 O=C(CCn1c(=O)sc2ccccc21)NC1CCCCC1
#20 O=C(NCSc1ccncn1)c1ccccc1
#21 N#CCCN1CCN(C(CNS(=O)(=O)c2ccc(Cl)cc2)c2ccccc2)CC1 (configuration not stated)
#22 Cc1cccc(OCCOCCSc2ncccn2)c1
#23 COc1cc(-c2nc3ccccc3c(=O)n2N)cc(OC)c1OC
#24 COc1ccc(CCNc2cc(C)nc3c(-c4ccc(Cl)cc4)c(C)nn23)cc1OC
screen / no.,19,20,21,22,23,24
TRPML1 inh,-3,-2,-9,-1,-13,4
TRPV1 potentiator,-5,-2,-6,-24,4,-7
Menin MLL FP FL,x,0.8,1.6,1.8,0.3,6.0
gsp antagonist,5%,14%,-2%,9%,9%,-11%
gsp ag,-5%,-11%,2%,-36%[inhibitor],36%,4%
ClpP mod,-0.1%,0.9%,-15%,-0.8%,-1.0%,28µM*
Sfp inh,6%,20µM*,1%,8%,18%,u

#25 CC(=O)N1CCN(c2ccc(NC(=O)c3cccc(F)c3)cc2)CC1
#26 O=C(COC(=O)c1c[nH]c2ccccc12)Nc1cccc(F)c1
#27 Cc1ccc(N2CC3=C(C2=O)C(c2ccccc2)NC(=O)N3C)cc1 (configuration not stated)
#28 Cn1c(CNC(=O)c2ccco2)nnc1SCC(=O)Nc1ccccc1Cl
#29 COc1cccc(C(=O)/C=C/Nc2ccc(NC(C)=O)cc2)c1
#30 CCCCCCCC/C=C\CCCCCCCC(=O)NCCO
screen / no.,25,26,27,28,29,30
TRPML1 inh,-5,-23,-1,-9,-15,13
TRPV1 potentiator,x,22,-4,-6,2,-17
Menin MLL FP FL,x,x,-1.5,x,3.8,5.6&-0.1&-23
gsp antagonist,x,-10%,2%,13%,1%,14%
gsp ag,-38%[inhibitor],u,u,-17%[15.4 µM],u,x
ClpP mod,-0.8%,5.3%,-10%,x,-2.3%,0.1%
Sfp inh,x,x,5%,x,-3%,13%&-14%

The last 2 records of the part above come first, to join the parts.
#29 COc1cccc(C(=O)/C=C/Nc2ccc(NC(C)=O)cc2)c1
#30 CCCCCCCC/C=C\CCCCCCCC(=O)NCCO
#31 O=C(COc1ccc(F)cc1Br)NCc1ccccn1
#32 CCCCn1c(N)c(N(CCOC)C(=O)c2ccc3c(c2)C(=O)N(c2ccccc2Cl)C3=O)c(=O)[nH]c1=O
#33 CSc1nc2nc(C)c(C/C=C/c3ccccc3)c(=O)n2[nH]1
#34 O=C(Nc1ccc(Cl)cc1Cl)C1CCCO1 (configuration not stated)
#35 CC(C)=CC(=O)Nc1ccc2c(c1)OCO2
#36 COc1ccccc1N1CCN(/N=C/c2cc(OC)c(OC)c(OC)c2)CC1
screen / no.,29,30,31,32,33,34,35,36
TRPML1 inh,-15,13,2,13,32,-27,11,1
TRPV1 potentiator,2,-17,17,x,8,-9,26,-5
Menin MLL FP FL,3.8,5.6&-0.1&-23,0.6,x,-6.1,-0.8,2.8,-0.8
gsp antagonist,1%,14%,0%,-7%,u,4%,-2%,-5%
gsp ag,u,x,-1%,u,-3%[15.4 µM],0%[15.4 µM],u,-18%
ClpP mod,-2.3%,0.1%,1.1%,-3.6%,x,1.3%,-2.3%,1.0%
Sfp inh,-3%,13%&-14%,-1%,x,16%,12%,-3%,10%

An excerpt from above, showing only TRPML1 inh and gsp antagonist:
no. | molecule | TRPML1 inh | gsp antagonist
31 | O=C(COc1ccc(F)cc1Br)NCc1ccccn1 | 2 | 0%
32 | CCCCn1c(N)c(N(CCOC)C(=O)c2ccc3c(c2)C(=O)N(c2ccccc2Cl)C3=O)c(=O)[nH]c1=O | 13 | -7%
33 | CSc1nc2nc(C)c(C/C=C/c3ccccc3)c(=O)n2[nH]1 | 32 | u
34 | O=C(Nc1ccc(Cl)cc1Cl)C1CCCO1 (configuration not stated) | -27 | 4%
35 | CC(C)=CC(=O)Nc1ccc2c(c1)OCO2 | 11 | -2%
36 | COc1ccccc1N1CCN(/N=C/c2cc(OC)c(OC)c(OC)c2)CC1 | 1 | -5%

Going on with the list:
#37 Cc1ccc(CN(C)C(=O)CCNC(=O)c2ccc(Cl)cc2)o1
#38 CC(C)c1ccc(C(C(=O)NC2CCCC2)N(C(=O)c2csnn2)C2CC2)cc1 (configuration not stated)
#39 COc1ccccc1N(CC(=O)N/N=C/c1ccc(C(=O)O)cc1)S(=O)(=O)c1ccc(C)cc1
#40 O=C(CN1C(=O)c2cccc3cccc1c23)N1CCc2ccccc2C1
#41 O=C(c1ccco1)N1CCN(C(=O)C2Cc3ccccc3CN2S(=O)(=O)c2ccc(F)cc2)CC1 (configuration not stated)
#42 Cc1nn(-c2cccc(C(=O)O)c2)c(C)c1[N+](=O)[O-]
screen / no.,37,38,39,40,41,42
TRPML1 inh,3,25,-10,-13,18,-18
TRPV1 potentiator,x,-5,-30,-1,-5,-4
Menin MLL FP FL,x,x,2.5,-0.1,0.5,-0.6
gsp antagonist,x,-11%,-2%,-11%,-1%,-14%
gsp ag,-6%,6%[15.4 µM],-17%,-2%,3%,-10%[15.4 µM]
ClpP mod,2.3%,1.4%,0.4%,-2.7%,-0.4%,x
Sfp inh,x,2%,18%,-13%,0%,25%

#43 C1CCc2c(nc3nnnn3c2NC2CCCC2)C1
#44 S=c1[nH]nc(-c2cccnc2)n1-c1ccc2c(c1)OCCO2
#45 Cc1cccc(-n2c(-c3ccccc3)c[nH]c2=S)c1C
#46 O=C(Nc1ccccc1)c1c(F)cccc1F
#47 Cc1[nH]c2c(ccc3ccccc32)c1C1C(CCN)C1(C)C (configuration not stated)
#48 CC(C)(C)CN1CCN(CC#Cc2ccccc2)CC1CCO (configuration not stated)
#49 COc1ccc(-n2c(C)c(C)c3c(NCCO)ncnc32)cc1
screen / no.,43,44,45,46,47,48,49
TRPML1 inh,11,4,-1,-11,-3,-29,-6
TRPV1 potentiator,-11,2,19,-8,6,-1,0
Menin MLL FP FL,1.6,-1.5,-2.4,5.8,0.6,-1.8,3.5
gsp antagonist,3%,x,-9%,-10%,11%,5%,-5%
gsp ag,-30%,2%[15.4 µM],4%[15.4 µM],-12%,-8%,-2%,5%[15.4 µM]
ClpP mod,-2.1%,x,x,-0.7%,-10.0%,-0.5%,2.8%
Sfp inh,16%,u,u,9%,-4%,5%,-14%
